Bioassay records: PubChem BioAssay, National Center for Advancing Translational Sciences (NCATS)
ClpP mod: qHTS Assay for Activators of ClpP; AID 651965, 2013; Potency, µM (titrated, usually from 57.5 µM), for the others: top-dose activity change, negative = active; 340,000 compounds, 1.9% hits; ATP-dependent Clp protease proteolytic subunit (Bacillus subtilis (strain 168)), P80244; purified B. subtilis ClpP, FRET peptide cleavage, 20 min; active = well fitted falling curve with a large enough effect; inconclusive = small, poorly fitted or top-dose-only effect; inactive = no such curve, though single readings can be large or run the other way; note: potency is the fitted concentration of half-maximal effect; the source files actives as falling curves though it sought activators and does not explain the sign; nearly all actives have a fitted effect of over 65% in size; many hits overshoot -100%
Target sequence (P80244 whole entry, looked up): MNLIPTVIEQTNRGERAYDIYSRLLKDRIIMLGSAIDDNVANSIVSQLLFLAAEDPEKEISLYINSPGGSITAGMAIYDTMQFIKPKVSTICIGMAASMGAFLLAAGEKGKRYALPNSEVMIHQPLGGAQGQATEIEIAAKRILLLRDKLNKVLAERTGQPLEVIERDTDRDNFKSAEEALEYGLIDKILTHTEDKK
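Buffer: 100 mM Tris/HCl pH8, 100 mM KCl, 0.05% low protease BSA, 2.5% glycerol, 0.01% Tween-20. ClpP 10 microg/mL final; 20 min RT; delta FRET normalized to ADEP and DMSO controls.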
Menin MLL FP FL: displaces fluorescein MLL peptide from human menin; Fluorescence polarization, fluorescein-MLL peptide displacement from menin; FP activity change, % at 61.4 µM; 290,000 tested, under 10 active; AID 1766; inconclusive = falling polarisation curve, or a change in total fluorescence; inactive = total fluorescence flat and polarisation flat or rising; no compound was filed as active; the % refers to the polarisation; negative = inhibition;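 note: % of control where 0% means no effect; inhibitors lower the polarisation; unlabelled MLL peptide was the positive control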
gsp agonist: activates gsp, the McCune-Albright syndrome mutation. gsp mutant cells, cAMP HTRF, 30 min; control for the full effect not named in the record. Potency, µM (top dose mostly 76.9 µM), for inactives: at the top dose activation (cAMP increase), hits mostly activators. 340,000 compounds, 0.13% hits. AID 624287; active = well fitted activation curve with a large enough effect; inconclusive = small, poorly fitted or top-dose-only effect, or another doubt; inactive = no such curve, though single readings can be large or run the other way; cell line not stated here;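 note: phosphodiesterase inhibitor Ro 20-1724 added with compounds to block cAMP breakdown; potency is the fitted concentration of half-maximal effect; nearly all actives have a fitted effect of over 60% in size; about a fifth of the inactives were tested at one dose only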
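Cells stably selected in G418 were plated at 2000/well, grown 16-24 hr, then given compounds in DMSO with the PDE inhibitor […] (300 uM solution added) for 30 min at 37C; cAMP was read by HTRF.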
TRPML1 ag: activates the human TRPML1 channel; Q9GZU1; TRPML1-expressing cells, Ca2+ dye fluorescence, FDSS; host cell line not named in the record; reference of the full effect not given here; activation, % (no concentration beside the values); 410,000 compounds, 0.12% hits; AID 624414; in the data active = activation above about 50%; inconclusive = about 30% to 50%; inactive = below about 30%; note: 0% is about no effect; the text of the record puts the active cut at 80%
Target sequence (Q9GZU1 whole entry, looked up): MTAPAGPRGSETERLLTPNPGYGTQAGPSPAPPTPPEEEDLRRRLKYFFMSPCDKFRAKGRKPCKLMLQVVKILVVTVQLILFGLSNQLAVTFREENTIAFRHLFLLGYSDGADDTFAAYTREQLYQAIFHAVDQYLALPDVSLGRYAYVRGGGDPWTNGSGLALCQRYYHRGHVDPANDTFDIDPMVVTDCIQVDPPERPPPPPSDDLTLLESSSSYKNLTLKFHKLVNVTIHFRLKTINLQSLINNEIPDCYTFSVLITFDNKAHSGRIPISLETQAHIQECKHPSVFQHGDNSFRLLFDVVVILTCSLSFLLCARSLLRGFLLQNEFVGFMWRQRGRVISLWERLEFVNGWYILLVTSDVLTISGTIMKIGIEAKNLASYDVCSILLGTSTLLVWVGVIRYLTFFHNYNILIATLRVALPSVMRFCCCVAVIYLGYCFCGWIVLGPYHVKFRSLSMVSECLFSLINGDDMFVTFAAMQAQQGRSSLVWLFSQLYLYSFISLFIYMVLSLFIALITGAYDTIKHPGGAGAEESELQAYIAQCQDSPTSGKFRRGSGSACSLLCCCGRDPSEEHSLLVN
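Tetracycline-induced TRPML1-DL cells are seeded and incubated overnight before loading with a no-wash Ca2+ dye and quencher. Agonist activity is taken from the 110 s fluorescence read following compound pin-transfer on an FDSS, before EC80 54-4 challenge.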
gsp antag: antagonists of gsp mutant (McCune-Albright syndrome); gsp-mutant cells, cAMP HTRF, 30 min; control for the full effect not named in the record; Potency, µM (series often up to 76.9 µM), for the others: at the highest dose activity change, negative = inhibition, most hits filed as inhibitors; 340,000 compounds, 0.4% hits; AID 624288; active = falling curve of any shape with a large fitted effect; inconclusive = falling curve, mostly with a smaller effect; inactive = flat or rising curve; cell line not stated here;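 note: intracellular cAMP measured with PDE inhibitor Ro 20-1724 present during compound exposure; potency is the fitted concentration of half-maximal effect; % is set by controls: 0 for no effect and ±100 for the full control effect; nearly all actives have a fitted effect of over 65% in size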
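HTRF cAMP read-out (cAMP-d2 plus anti-cAMP antibody-K in lysis buffer, 30 min RT). Before lysis, cells are exposed to compounds with […] for 30 min at 37C in DPBS containing Ca/Mg, BSA and Tween 20.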
TRPML1 inh: blocks the human TRPML1 channel; AID 624415; TRPML1-inducible cells, Ca2+ dye fluorescence, FDSS; active compounds read low; inhibition of EC80 agonist-evoked calcium signal; activity change, negative = inhibition, % (test concentration not listed); 390,000 compounds, 0.02% hits; in the data active means activity change below about -50%; inconclusive means about -30% to -50%; inactive means above about -30%;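 note: stimulus is agonist 54-4 at its EC80 concentration; % is set by controls: 0 for no effect and ±100 for the full control effect; compound concentration not given in the record; the text of the record puts the active cut at -80%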
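Tet-induced TRPML1-DL cells loaded with Ca8 no-wash calcium dye were read kinetically on FDSS. Compound addition was followed by EC80 agonist 54-4 (4 uM final); inhibition was read over 110 s.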
Active calls of the source: *; ? = inconclusive; / = no result given; & = joins results of further samples; [ ] = remark or other dose.

SMILES	ClpP mod	Menin MLL FP FL	gsp agonist	TRPML1 ag	gsp antag	TRPML1 inh
CNC(=O)CSc1nc(-c2ccccc2)c(-c2ccccc2)[nH]1	?	1.7	-5%	0.7	-7%	-5
Cc1cc(N2CC(C)OC(C)C2)n2cc(-c3ccccc3)nc2n1 (stereo unspecified)	/	-1.1	10%[15.4 µM]	0.7	-27%	10
S=C(NCCc1ccccc1)N/N=C/c1ccc(Cl)cc1	/	4.2	-6%[15.4 µM]	1.1	-6%	4
O=C(Cn1cnc2ccccc2c1=O)N/N=C/c1ccc(Br)cc1	/	0.3	-25%	0.3	0%	-15
O=C(CSc1nnc(Nc2ccccc2)s1)Nc1ccc(S(=O)(=O)N2CCOCC2)cc1	-5.1%	0.7	-5%	0.6	-19%	-10
COC(=O)c1ccccc1N=C(SC)N(C)C	?	1.1	-5%	0.5	11%	-16
CC(C)NC(=O)CSc1nc2sccc2c(=O)n1-c1ccccc1	/	-0.7	19%[15.4 µM]	-0.3	-18%	-2
COc1ccc(C(=O)NCCCOc2cccc(NC(C)=O)c2)cc1	0.5%	-0.9	4%[15.4 µM]	-0.5	4%	-10
Cc1ccc(NC(=O)CN(C)C(=O)c2cccc(-n3cccc3)c2)cc1	-6.0%	/	4%	-1.3	-12%	7
Cc1onc(-c2ccccc2Cl)c1C(=O)OCC(=O)N1CCCc2ccccc21	-5.4%	0.0	26%	-1.2	-19%	5
Cc1cc(C)cc(NC(=O)CCS(=O)(=O)c2ccc3nc(C)sc3c2)c1	-0.6%	/	/	0.9	/	-4
O=C1Nc2ccc(Cl)cc2/C1=C/C1CC=CCC1 (stereo unspecified)	3.9%	0.1	-43%	-0.6	11%	24
COc1ccc(CCn2c(SCC(=O)Nc3cc(C)on3)nc3ccsc3c2=O)cc1OC	-19%	-1.0	-64%[inhibitor]	1.3	4%	7
COc1ccc(CNC(=O)COC(=O)CCOc2ccccc2)cc1	1.7%	2.5	-5%	0.2	?	-1
CCOC(=O)C1CCN(C2=NC(=O)/C(=C/c3ccc(Cl)cc3)S2)CC1	-0.7%	0.2	45%	2.6	-6%	-9
COc1ccccc1-c1cc(C(=O)N2CCCc3ccccc32)no1	-0.4%	0.5	-1%	3.9	-17%	15
CCc1nnc2c(Nc3ccc(Br)c(C)c3)nc3ccccc3n12	-1.3%	/	/	0.2	/	12
CC(=O)c1nnn(-c2nc(N3CCCC3)nc(N(c3ccccc3)c3ccccc3)n2)c1C	-4.3%	3.7	-23%	-0.6	-6%	-3
O=C(CCC(=O)c1cccs1)NCC(=O)Nc1ccc(F)c(F)c1F	-2.7%	6.3	23%	-0.1	7%	4
O=C1NN(c2ccccc2)C(=O)/C1=C/c1ccc(Sc2cccc3ccccc23)o1	1.5%	5.1	-4%[15.4 µM]	-0.4	1%	-7
CCC1(CC)Cc2ccccc2C(C2=C(O)CC(C)(C)CC2=O)=N1	-3.0%	-1.6	-21%	0.1	0%	-8
CCc1ccc(C(c2c(C)nn(-c3ccccc3)c2N)c2c(C)nn(-c3ccccc3)c2N)cc1	3.1%	12	-19%	1.0	-27%	17
Cc1cccc(-n2nnnc2SCC(=O)Nc2ccc(N3CCN(C)CC3)cc2)c1	1.3%	2.2	?	0.5	13%	-18
Cc1nc2c(-c3ccc(F)cc3)cnn2c(N)c1-c1ccccc1	3.6%	25	-2%	-0.2	?	11
CSCCC(NC(=O)COc1ccccc1)C(=O)N(C)CC(=O)Nc1ccc(Cl)cc1 (stereo unspecified)	-0.1%	/	-38%[inhibitor]	0.4	-1%	-8
COC(=O)[C@@H]1Cc2c([nH]c3ccccc23)C(C)N1C(=O)c1ccccc1 (stereo partly specified)	-1.7%	10	?	-0.4	-4%	-22
Cn1c(CC(=O)Nc2ccccc2)nnc1SCC(=O)NC1CCCC1	/	-0.2	0%	0.3	4%	-1
NC(=O)c1nccc2ccccc12	-3.1%	/	-2%	1.0	8%	-8
Cc1ccc(-c2nnc(SCC(=O)N/N=C/c3ccccc3C(=O)O)n2-c2ccc(Cl)cc2)cc1	-3.2%	0.5	-13%	1.8	-11%	1
CC(C)(C)NC(=O)CN1CCC(NC(=O)C23CC4CC(CC(C4)C2)C3)CC1	/	8.7	17%	0.8	8%	-4
Cc1ccc(Cc2c(-c3ccc(Br)cc3)nc3ccc(Br)cn23)cc1	-1.7%	/	8%	-0.5	/	-9
COc1ccc(Cl)cc1S(=O)(=O)NCc1ccncc1	1.1%	-3.4	?	0.4	5%	11
Cc1c(Cl)cccc1-c1ccc(/C=C(\C#N)c2nc3ccccc3[nH]2)o1	-1.2%	/	/	30	/	5
CCCC(=O)c1cc2c(cc1NC(=O)c1ccccc1F)OCCO2	4.9%	-1.5	35%	0.0&-0.7	?	11&-12
Cc1cc(-c2ccccc2)nc(N(C)C)c1S(C)(=O)=O	-2.7%	-2.7	-1%	0.2	-48%	5
Cc1nnc(C)n1/N=C/c1ccc(O)cc1	-6.1%	3.7	-52%[inhibitor]	-0.1	1%	28
C=CCNC(=O)/C(C#N)=C/c1ccc(SC)cc1	25µM*	1.4	4%[15.4 µM]	-1.0	7%	18
COc1ccc(C)cc1NC(=O)CSc1nnnn1C1CCCC1	0.1%	/	?	2.2	9%	-8
COC(=O)/C=C/CC(C)OS(N)(=O)=O (stereo unspecified)	-0.4%	-2.3	-5%	-0.5	11%	-5
CS(=O)(=O)c1ccc2nc(NC(=O)Nc3ccc(Cl)c(Cl)c3)sc2c1	-0.8%	16	7%[15.4 µM]	0.3	7%	-3
CCOc1cc(S(=O)(=O)NCCc2ccccc2C)c(OCC)cc1-n1cnnn1	32µM*	-0.6	-37%[inhibitor]	-0.4	1%	7
Cn1c(=O)c2cc(S(=O)(=O)Nc3cc(C(=O)O)cc(C(=O)O)c3)ccc2n(C)c1=O	-2.8%	-0.4	?	0.5	11%	-7
O=C(CNC(=O)c1ccccc1)NCC(=O)OCC(=O)c1ccccc1	/	1.1	-1%[15.4 µM]	0.1	1%	15
COc1ccccc1Cn1cc(C(=O)c2ccc(C)cc2)c(=O)c2cc3c(cc21)OCCO3	-1.8%	/	/	0.7	/	2
O=C(COC(=O)c1ccccn1)Nc1cccc2ccccc12	-1.8%	3.1	0%[15.4 µM]	-0.7	7%	-6
O=C(Cn1c(=O)oc2ccccc21)N1CCOCC1	-1.6%	-6.1	29%	0.6	-24%	-8
CCCCOP(=O)(c1ccc(N(C)C)cc1)C(O)c1ccc(OC)c(OC)c1 (stereo unspecified)	/	1.0	7%	-1.0	2%	-18
COc1ccccc1N1CCN(C(=O)C2CC(=O)N(c3ccccc3)C2)CC1 (stereo unspecified)	/	-1.8	-1%	0.0	8%	6
COCCNC(=O)Cn1nc(-c2ccc(C)cc2)ccc1=O	1.1%	4.5	-16%[15.4 µM]	0.2	5%	4
COc1ccc(C(CC(=O)NC(C)(C)C)n2cccc2)cc1 (stereo unspecified)	-1.0%	-0.5	-19%	-1.3	6%	-11
O=C(CNC(=O)c1ccco1)N/N=C/c1ccc(O)cc1O	-21%	/	-1%	2.1	-4%	82
Cc1cccc(-n2c(SCC(=O)NCc3ccco3)nc3ccccc3c2=O)c1	-3.7%	-0.2	-51%[inhibitor]	2.0	-7%	3
O=C(CN1C(=O)COc2ccc(S(=O)(=O)N3CCOCC3)cc21)NCc1ccco1	/	1.2	18%[15.4 µM]	-0.1	10%	3
CCCCN(C(=O)c1c(C)[nH]c(C(=O)OCC)c1C)c1ccccc1	-1.3%	0.5	-3%	1.6	-3%	24
O=C(NC(C(=O)c1ccccc1)N1CCCCCC1)c1ccco1 (stereo unspecified)	1.3%	4.3	-43%[inhibitor]	0.1	6%	-5
COc1cccc(CNc2ccc(F)c(Cl)c2)c1	-3.5%	-0.1	17%	4.0	-21%	9
CCC(C)[C@H](NC(=O)NCc1ccccc1Cl)C(=O)OC (stereo partly specified)	-2.8%	-2.1	-39%[inhibitor]	1.6	9%	1
Cc1cc(N=CC2=C(O)CC(C)(C)CC2=O)no1	0.0%	-0.5	-14%	-0.8	17%	9
C=CCn1c(COc2cccc3ccc(C)nc23)nnc1SCC(N)=O	?	3.3	-5%	0.9	6%	-11
CC/C(=N/NC(=O)CCC(=O)Nc1ccccc1OC)c1ccccc1	-1.7%	-10.0	-80%[inhibitor]	0.0	6%	-6

Reprinted at random: 3 entries already listed, in no set order.
SMILES	ClpP mod	Menin MLL FP FL	gsp agonist	TRPML1 ag	gsp antag	TRPML1 inh
Cn1c(=O)c2cc(S(=O)(=O)Nc3cc(C(=O)O)cc(C(=O)O)c3)ccc2n(C)c1=O	-2.8%	-0.4	?	0.5	11%	-7
Cc1cccc(-n2c(SCC(=O)NCc3ccco3)nc3ccccc3c2=O)c1	-3.7%	-0.2	-51%[inhibitor]	2.0	-7%	3
CC/C(=N/NC(=O)CCC(=O)Nc1ccccc1OC)c1ccccc1	-1.7%	-10.0	-80%[inhibitor]	0.0	6%	-6

The results go on:
SMILES	ClpP mod	Menin MLL FP FL	gsp agonist	TRPML1 ag	gsp antag	TRPML1 inh
O=C(NNC(=O)c1ccc(Br)s1)c1ccc(F)c(S(=O)(=O)N2CCOCC2)c1	-1.1%	/	-12%	0.0	-13%	14
CCN(CCCNC(=O)Cn1ncc2c([nH]c3ccc(C)cc32)c1=O)c1ccccc1	-15%&-12%	0.9	?	-0.7&2.9	7%	-12&-10
COC(=O)c1[nH]c2ccccc2c1NC(=O)C(C)N1CCN(C(=O)c2ccco2)CC1 (stereo unspecified)	?	1.3	?	-0.2	11%	-7
CC(=O)Oc1ccc(/C=N/NC(=S)Nc2ccccc2)cc1	-5.8%	-0.2	12%[15.4 µM]	0.2	10%	-7
Cc1cccc(C(=O)OCc2cnc(Cl)s2)c1	-0.2%	3.2	-2%	0.9	-1%	-21
Cc1cc(Br)ccc1NC(=O)C1CCN(C(=O)c2ccco2)CC1	/	1.2	11%[15.4 µM]	-0.7	-3%	-4
COc1cccc(C(=O)OCC(=O)c2ccc(Br)s2)c1	1.3%	/	?	2.5	11%	20
NC(=O)C1CC(=O)N(c2ccc(OCc3ccc(Cl)c(Cl)c3)cc2)C1 (stereo unspecified)	-24%	/	-83%[inhibitor]	-0.3	/	-10
O=C(Oc1ccc(-n2cnnn2)cc1)c1ccco1	0.6%	-2.6	-24%	2.9	16%	10
CCOc1ccc(CNC(=O)CCc2cn(Cc3ccccc3)c3ccccc23)cc1	-25%	1.5	0%	0.2	2%	-3
Cn1cc(CN2CCC(N3CCNC(=O)CC3)CC2)c(-c2ccccc2F)n1	1.0%	2.7	4%	-0.4	9%	8
Cc1nn(-c2ccccc2)c2c1CC(=O)Nc1ccccc1-2	1.9%	/	27%	0.7	18%	1
CCc1ccc(-n2nc(C)c3c(C)cc(=O)n(CC(=O)Nc4ccc(C)c(F)c4)c32)cc1	0.5%	/	/	0.0	/	?
